Screens: PubChem BioAssay, National Center for Advancing Translational Sciences (NCATS)
GLA inh pH 4.5: blocks human alpha-galactosidase A at pH 4.5 | P06280 | purified enzyme, 4-MU-alpha-Gal fluorescence, pH 4.5 | activity change, negative = inhibition, % at 105 µM | 230,000 tested, under 10 active | AID 1467; inconclusive = small, poorly fitted or top-dose-only inhibition, or a rising curve; inactive = flat fitted curve, though single readings scatter; no compound was filed as active;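 note: 0% = full activity with enzyme and -100% = basal without enzyme; dose as in the result columns while the protocol names 77 µM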
Target sequence (P06280 whole entry, looked up): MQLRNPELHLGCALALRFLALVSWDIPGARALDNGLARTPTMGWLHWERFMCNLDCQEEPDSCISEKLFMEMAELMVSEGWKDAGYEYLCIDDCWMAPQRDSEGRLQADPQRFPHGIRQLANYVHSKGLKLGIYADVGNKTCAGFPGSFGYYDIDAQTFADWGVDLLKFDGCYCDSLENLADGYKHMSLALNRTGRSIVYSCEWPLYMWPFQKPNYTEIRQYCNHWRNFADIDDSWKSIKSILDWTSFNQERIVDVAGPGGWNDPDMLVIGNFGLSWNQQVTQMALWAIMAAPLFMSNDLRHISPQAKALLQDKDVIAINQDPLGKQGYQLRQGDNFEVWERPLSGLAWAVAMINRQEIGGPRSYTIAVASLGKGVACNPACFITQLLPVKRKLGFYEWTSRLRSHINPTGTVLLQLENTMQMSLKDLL
Rango dissoc inh: prevents RanGTP from dissociating the Rango-importin beta complex. Biochemical FRET Rango-importin beta, RanGTP-induced dissociation. Potency, µM (top dose mostly 46.1 µM), for inactives: top-dose activity change, negative = inhibition. 340,000 compounds, 0.071% hits; active means falling FRET ratio curve, often poorly fitted, with flat reads before Ran was added; inconclusive means other falling curves, or compound fluorescence or quenching; inactive means flat or rising ratio curve;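 note: potency is the fitted concentration of half-maximal effect; % of control where 0% means no effect; nearly all actives have a fitted effect of over 45% in size; -100% = wells without RanGTP and RCC1; the record marks most hits as doubtful in a second field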
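Compounds preincubate 5 min with complex of recombinant Rango and importin beta in PBS with 1 mM DTT. Ran (0.6 uM) loaded with 2 mM GTP plus 0.2 uM RCC1 starts dissociation; FRET is recorded 45 min later.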
Rango complex inh: prevents formation of the Rango-importin beta complex. Q14974. Rango CFP/YFP FRET sensor + importin beta, 45 min. Potency, µM (highest dose often 92.2 µM), for inactives: at the highest dose inhibition of complex formation. 340,000 compounds, 0.031% hits; active = rising FRET ratio curve, often small or poorly fitted; inconclusive = mostly compound fluorescence or quenching in the first reads; inactive = flat curves in all reads;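 note: potency is the fitted concentration of half-maximal effect; 0% = DMSO wells and 100% = buffer wells lacking importin beta; nearly all actives have a fitted effect of over 15% in size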
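Inhibition scored from the CFP 486 nm/YFP 530 nm FRET ratio 45 min after adding 0.125 microM importin beta to 50 nM Rango biosensor preincubated 5 min with compound (room temperature, PBS with DTT, Tween-20, BSA). No-importin wells as positive control.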
miR-21 FLuc: raises the signal of a miR-21 reporter; HeLa miR-21 FLuc reporter, luciferase, 48 h; Potency, µM (highest dose often 38.3 µM), for the others: at the top dose reporter change, positive = more light; 340,000 tested, under 10 active; active = well fitted rising curve with a large enough effect; inconclusive = small, poorly fitted or top-dose-only effect; inactive = no such curve, though single readings can be large or run the other way;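 note: % of control where 0% means no effect; miR-21 action dims this reporter so a rising signal means less miR-21 action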
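Compounds were titrated across several concentrations (up to approximately 40 uM) and incubated 48 hours with HeLa miR-21-FLuc reporter cells (miR-21 target sequence downstream of FLuc, endogenous miR-21). Readout was firefly luciferase luminescence after lytic detection reagent.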
Active calls of the source: *; ? = inconclusive; · = not tested or not shown. An excerpt, so the mix of outcomes need not match the whole.

Every second line gives: GLA inh pH 4.5	Rango dissoc inh	Rango complex inh	miR-21 FLuc
- CN(c1ccccc1)S(=O)(=O)c1ccc2c(c1)OCCO2
  ·	2%	-0.2%	·
- COc1ccc(C(C(=O)NC2CCCC2)N(C(=O)c2ccco2)c2ccc(OC)c(OC)c2)cc1 (stereo not given)
  2	-5%	-2.5%	-7%
- O=C(NC1CCC(O)CC1)c1cccnc1Sc1ccccc1Cl (stereo not given)
  ·	15%	0.8%	-7%
- O=C(OCC(=O)N1CCOCC1)c1cccc(S(=O)(=O)Nc2ccc(F)cc2)c1
  ·	-2%	-1.6%	·
- CCOC(=O)C1CCCN(C(=O)c2cccs2)C1 (stereo not given)
  7	20%	-4.0%	-9%
- Cc1cc(N2C(=O)NC(=O)CC2C)c(C)cc1C(C)C (stereo not given)
  8	14%	1.5%	2%
- CNC(=O)c1ccc(NC(=O)c2ccc3c(=O)n4c(nc3c2)CCC4)cc1
  ·	2%	-1.2%	·
- Cc1ccc2c(C)nc(Nc3nc(CSc4nc5ccccc5[nH]4)cc(=O)[nH]3)nc2c1
  2	-13%	-1.7%	28%
- O=C(c1ccco1)N1CCN(CC(O)COc2ccc(Br)cc2)CC1 (stereo not given)
  ·	-3%	0.6%	7%
- CC(C)(C)OC(=O)CN1C(=O)NC2(CCCc3ccccc32)C1=O (stereo not given)
  ·	?	4.5%	2%
- COc1ccc2cc3c(N)nn(C(=O)c4ccc(Cl)c([N+](=O)[O-])c4)c3nc2c1
  5	20%	1.1%	10%
- O=C(COC(=O)/C=C/c1ccc(OC(F)F)cc1)Nc1cccc(S(=O)(=O)N2CCOCC2)c1
  ·	2%	0.6%	·
- CC(C)c1ccc(OCC(O)CNC(C)c2ccccc2)cc1 (stereo not given)
  ·	2%	0.4%	21%
- COc1ccc(CCNC(=O)c2cccc(S(=O)(=O)N3CCCCC3)c2)cc1
  -4	-6%	-0.9%	4%
- COc1ccc(C(=O)N/N=C\C(C)=C\c2ccccc2)cc1OC
  ·	11%	2.1%	·
- COc1ccccc1NC(=O)CSc1nnc(-c2ccncc2)o1
  6	-4%	-1.4%	-30%
- CC(C)CCNc1nc(-c2ccco2)c2c(c1C#N)CCCC2
  ?	?	?	0%
- O=c1c(=O)n2c(nn1Cc1ccc(F)cc1)sc1ccccc12
  22	13%	3.8%	-13%
- COc1ccc(-c2noc(C3CCCN(C(=O)Nc4ccccc4F)C3)n2)cc1 (stereo not given)
  -10	0%	-4.3%	-9%
- CN(C(=O)COC(=O)COc1ccc(Cl)cc1)C1CCCCC1
  -3	21%	-1.3%	-3%
- Cc1ccc(C23CC4CC(CC(CN)(C4)C2)C3)cc1
  6	12%	4.5%	?
- Cc1ccc(S(=O)(=O)N/N=C\c2ccccc2OCc2ccccc2)cc1
  -10	-15%	0.9%	12%
- Cc1cc(C)c(-c2csc(NC(=O)c3n[nH]c(=O)c4ccccc34)n2)c(C)c1
  -9	1%	-0.3%	8%
- Cc1ccc(NC(=O)COC(=O)C2(CC(=O)NC(C)C)CCCC2)cc1C
  ·	8%	-0.9%	·
- CC(=O)Nc1ccc(-c2nnc(SCc3ccc(C)cc3)n2C)cc1
  1	4%	1.0%	-7%
- COc1ccc2oc(=O)c(-c3ccccc3C(=O)N3CCOCC3)cc2c1
  6	-1%	3.5%	-5%
- COc1ccc(C(CCN2CCOCC2)c2c(OC)cc(OC)c3c(-c4ccccc4)cc(=O)oc23)cc1 (stereo not given)
  -20	1%	-0.1%	·
- Cc1ccc(C)c(NC(=O)COC(=O)CSc2ccccc2)c1
  ·	21%	-5.4%	·
- CCCCNS(=O)(=O)c1ccc(NC(=O)c2cccs2)cc1
  -25	0%	4.3%	-20%
- COc1ccc(NC(=O)N(Cc2cccnc2)Cc2ccccc2Cl)c(OC)c1
  ·	-2%	-2.3%	·

Quoted from the listing (two entries):
Every second line gives: GLA inh pH 4.5	Rango dissoc inh	Rango complex inh	miR-21 FLuc
- CN(c1ccccc1)S(=O)(=O)c1ccc2c(c1)OCCO2
  ·	2%	-0.2%	·
- COc1ccc(C(C(=O)NC2CCCC2)N(C(=O)c2ccco2)c2ccc(OC)c(OC)c2)cc1 (stereo not given)
  2	-5%	-2.5%	-7%

The list continues.
Every second line gives: GLA inh pH 4.5	Rango dissoc inh	Rango complex inh	miR-21 FLuc
- O=C(CSc1nnc(-c2cccnc2)o1)NNC(=O)c1ccc(Br)cc1
  2	5%	2.4%	-12%
- COC(=O)[C@@]12CCCN1[C@H](c1ccc(-c3ccc(OC)cc3)c(OC)c1)[C@@H]1C(=O)N(C)C(=O)[C@@H]12
  ·	?	-3.5%	·
- COCCn1c(C)cc(/C=C2/NC(=O)N(Cc3ccc(C)cc3)C2=O)c1C
  -8	-23%	?	-27%
- Cc1noc(C)c1COc1ccccc1C(=O)NNC(=O)c1ccccc1F
  ·	-12%	-0.2%	·
- COC(=O)Nc1ccc(S(=O)(=O)NC2CCS(=O)(=O)C2)cc1 (stereo not given)
  -1	-10%	7.0%	0%
- O=C(CSC1=NC2(CCCCC2)N=C1c1ccccc1)Nc1ccc2c(c1)OCCO2
  4	4%	-0.4%	-2%
- COc1ccc(/C=N/n2c(C3CCCCC3)n[nH]c2=S)c(OC)c1
  ·	-12%	4.1%	-8%
- Cc1cccc(N2CCN(C(=O)CCNC(=O)Cn3ccc4ccccc4c3=O)CC2)c1C
  -2	8%	5.0%	1%
- O=C(/C(=C/c1ccc(Cl)cc1)c1nc2ccccc2[nH]1)c1cccs1
  -12	2%	-0.1%	?
- C(=NN1CCCCCC1)c1cccc2ccccc12
  ·	15%	0.3%	·
- CCN(CC)C(=O)CC(c1ccc(N(C)C)cc1)c1c(OC)cc(OC)c2ccc(=O)oc12 (stereo not given)
  3	-10%	-3.3%	-4%
- O=C(CNS(=O)(=O)c1ccc(Br)s1)NCc1ccccc1
  ·	13%	-1.7%	0%
- Cc1cc(Nc2cccc(C)c2C)n2nc(C)nc2n1
  2	-7%	3.9%	2%
- CCOC(=O)c1c(NC(=O)c2ccccc2)sc2c1CCc1ccccc1-2
  9	-4%	-3.1%	-7%
- CCn1c(SCC(=O)Nc2ccc(OC)cc2)nc2c(c1=O)SCC2
  ·	-11%	1.9%	0%
- O=C1NC(=S)N(C(=O)c2ccc(F)cc2)/C1=C/c1ccccc1
  8	?	?	-29%
- Cc1ccccc1-c1nnc(NC(=O)c2ccc(N3C(=O)CCC3=O)cc2)s1
  1	8%	-3.5%	-1%
- COc1ccc(C)cc1Nc1n[n+](-c2ccccc2)c(-c2c(Cl)cccc2Cl)s1
  ·	-8%	6.5%	?
- COc1ccc(C(=O)Nc2ccc3oc(-c4cccc(F)c4)nc3c2)cc1OC
  4	24%	-0.9%	-10%
- Cc1cc(NC(=O)C2CC(=O)N(c3ccc(Cl)cc3)C2)no1 (stereo not given)
  ·	17%	0.4%	-1%
- CC(C)CCC1(C)NC(=O)N(CC(=O)NCC(=O)Nc2ccc(F)c(F)c2F)C1=O (stereo not given)
  ·	41%	-0.4%	·
- Cn1c(N)c(C(=O)COC(=O)CSc2cccc3cccc(Cl)c23)c(=O)n(C)c1=O
  -10	-1%	-1.7%	4%
- CCN1C[C@@H]2[C@@H]3C(=O)N(C)C(=O)[C@@H]3[C@](C)(C1=O)N2C(=O)c1ccccc1
  ·	-10%	3.7%	·
- COc1ccc(-c2ccc3c(N)c(C(=O)c4cccc(OC)c4)sc3n2)cc1
  -5	?	?	-9%
- CN(C)/C=C/C(=O)c1ccc(F)cc1F
  -8	-13%	-4.0%	-32%
- COc1cc(C(=O)c2nccc3cc(OC)c(OC)cc23)c([N+](=O)[O-])cc1OC
  -7	-27%	-0.1%	-35%
- CCNC(=O)NC(=O)CSc1nc2ccccc2n1CCOC
  -1	6%	0.2%	-3%
- Cn1cnnc1SCc1ccc(C(=O)N/N=C(/CCC(=O)O)c2ccc(C(C)(C)C)cc2)cc1
  ·	6%	0.2%	·
- CCOCCCNC(=O)c1ccc(Cn2c(=S)[nH]c3c([nH]c4ccc(OC)cc43)c2=O)cc1
  1	12%	0.0%	-7%
- O=C(Nn1cnc2ccccc2c1=O)c1cccc(Cl)c1
  2	-8%	2.1%	-30%
- Cc1ccc(NC(=O)CCN2C(=O)c3ccccc3S2(=O)=O)cc1C
  ·	6%	-3.4%	·
- Cc1cc(S(=O)(=O)NC(C)c2nnc3ccccn23)ccc1Br (stereo not given)
  ·	-7%	-4.2%	·
- CC(=O)C1=C(C)Nc2ncnn2C1c1ccc(F)cc1 (stereo not given)
  ·	12%	2.3%	1%
- CCOC(=O)C1CCN(C(=O)C2CCN(S(=O)(=O)c3cccc4cccnc34)CC2)CC1
  2	·	·	-13%
- CCCn1nc(NC(=O)c2ccco2)c2cc3cc(C)ccc3nc21
  13	?	?	-20%
- O=C(/C=C/Nc1cccc(C(F)(F)F)c1)c1ccco1
  2	?	?	-33%
- CC(NCCOc1ccccc1F)C(=O)Nc1ccc(S(N)(=O)=O)cc1 (stereo not given)
  ·	0%	0.0%	-1%
- Cc1cc(OCc2ccc(C(=O)Nc3ccc(C(=O)O)cc3)o2)ccc1Cl
  ·	-9%	-1.2%	-27%
- Cc1c(-n2c(SCC(=O)O)nnc2-c2ccccc2Cl)c(=O)n(-c2ccccc2)n1C
  2	-1%	0.6%	-1%
- COc1ccc(NC(=O)[C@@H]2CC=C[C@@H]3CCN(C4CCCCC4)C(=O)[C@@H]32)cc1
  ·	1%	-4.4%	·
- O=C(NCc1ccc(OC(F)(F)F)cc1)C1CC(c2c(Cl)cccc2Cl)=NO1 (stereo not given)
  -9	8%	3.7%	4%
- NC(=O)Cn1c(=O)n(C2CCCCC2)c(=O)c2c3c(sc21)CCCCC3
  -1	-12%	1.2%	-6%
- COC(=O)c1ccccc1NC(=O)CCS(=O)(=O)c1cc2c(cc1C)NC(=O)CO2
  ·	18%	-2.1%	2%
- CCOc1ccc(C2C(C#N)=C(N)Oc3n[nH]c(C)c32)cc1OC(=O)C1CC1 (stereo not given)
  4	-8%	3.1%	10%
- O=C(O)c1ccccc1-c1ccccc1C(=O)Nc1ccc(F)cc1
  ·	12%	3.9%	1%
- COc1ccccc1/C=C(/C(=O)OCC(=O)N(C)Cc1ccccc1)c1ccccc1
  1	-1%	-3.8%	-10%
- CCS(=O)(=O)N1CCC(C(=O)Oc2ccccc2OC)CC1
  ·	10%	-5.2%	-3%
- Cc1cc(C(=O)CSc2nnnn2C)c(C)n1CCc1ccc(F)cc1
  9	2%	-2.3%	3%
- CC(C)(C)NC(=O)CSc1nnc(NC(=O)c2ccccc2Cl)s1
  -5	-18%	-0.6%	-22%
- CC1CCC(NC(=O)CSc2nnnn2C)CC1 (stereo not given)
  ·	7%	3.0%	·
- CNC(=O)Nc1cc(NC(=O)NC)cc(C(F)(F)F)c1
  0	5%	6.7%	2%
- CCOC(=O)C1=C(O)CCn2c1nc1ccccc12
  0	9%	-0.9%	-9%
- O=[N+]([O-])c1ccc(Nc2ccccc2)c2nonc12
  ·	20%	1.2%	-1%
- CCOC(=O)C1CCN(C(=O)CCNC(=O)c2cc(OC)c(OC)c(OC)c2)CC1
  2	-15%	0.0%	1%
- O=C(N/N=C/c1cc2c(cc1Cl)OCO2)c1ccccn1
  ·	0%	0.5%	·
- COC(=O)c1ccc(/C=N/N2CCN(Cc3ccccc3)CC2)cc1
  5	-5%	-0.6%	-3%
- COc1ccc2nc(SCCOC(=O)Nc3ccc(Cl)cc3)nc(C)c2c1
  3	-4%	-4.8%	1%
- O=C(COc1ccc(F)c(Cl)c1)Nc1ccc(N2CCOCC2)cc1
  ·	10%	-3.7%	·
- Cn1ccnc1C(=O)c1cc(SCC(=O)NC2CC2)nc2ccccc12
  2	-1%	0.3%	3%
- CCCCC(=O)OCc1c(-c2cccc(OC)c2)ncc2ccccc12
  ·	1%	?	·
- NS(=O)(=O)c1ccc(Sc2nc3ccccc3s2)c([N+](=O)[O-])c1
  -5	-1%	-0.1%	?
- COc1ccc(-c2cc3nc(C)cc(NCCO)n3n2)cc1
  -1	-10%	-2.0%	-52%
